Screens as filed in PubChem.
UUG fidelity – modulators of yeast start codon fidelity, primary screen, whole organism, S. cerevisiae, single point, plate reader. activity score, % at 18.7 µM. S. cerevisiae UUG-firefly luciferase reporter, luminescence/redox ratio. 0.13% of 350,000 active;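 active = replicate mean at a twofold rise or more, about +100% in these data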;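 note: firefly luciferase made from a UUG start codon reports start codon fidelity; reporter light over untreated wells divided by growth signal over untreated wells; some hits fall short of that in this replicate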
CSC inhib – cancer stem cell viability inhibitors, primary screen, luminescence | cancer stem cell-like cells viability | inhibition, % at 7.5 µM | 1.1% of 300,000 active | AID 2717, 2010;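 active = mean at 75% or more and at least half the replicates too; inconclusive = mean and replicates disagree; tested in HMLE shEcad cells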;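 note: 0% = median of negative and 100% = median of positive control wells; the first replicate is given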
eIF4H inh – human eIF4H binding inhibitors, primary screen, translation initiation inhibitor project, biochemical, uHTS, fluorescence polarization | inhibition, % at 35 µM | eIF4H fluorescence polarization binding assay | Eukaryotic translation initiation factor 4H (Homo sapiens), Q15056 | 0.94% of 290,000 active;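 active = 50% or more with normal probe brightness, or confirmed in later tests; inconclusive = above 50% with abnormal brightness, or retests that disagree; inactive = below 50% or failed in later tests; about a fifth of its hits are not listed in these tables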;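 note: calls also rest on retests at 20 µM and on dose response follow-up; 0% = protein and probe with vehicle and 100% = probe without protein; strong numbers were not always called active; many hits fall short of the cut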
Env fusion inh – inhibitors of HIV-1 Env-driven cell-cell fusion, primary screen, HeLa-JRFL effector, CEM21 target cells, luciferase. inhibition, % at 12.3 µM. 1.1% of 360,000 active;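 active = mean replicate inhibition score of at least 50 and every replicate individually at or above 50; inconclusive = only one of the two criteria met; inactive = mean below 50 and not all replicates reaching 50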;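 note: 0% = plate neutral controls and 100% = maraviroc near 300 nM; one replicate is shown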
PABP FP inh – PABP poly(A) RNA binding inhibitors, primary screen, biochemical, fluorescence polarization, uHTS | inhibition, % at 35 µM | 1% of 290,000 active;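 active = 50% or more with normal probe brightness, or confirmed in later tests; inconclusive = above 50% with abnormal brightness, or retests that disagree; inactive = below 50% or failed in later tests; about a fifth of its hits are not listed in these tables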;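 note: calls also rest on retests at 20 µM and on dose response follow-up; controls were probe without protein and protein plus probe with vehicle; some compounds called inactive have numbers as strong as hits; many hits fall short of the cut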
Target sequence (P11940 whole entry, looked up): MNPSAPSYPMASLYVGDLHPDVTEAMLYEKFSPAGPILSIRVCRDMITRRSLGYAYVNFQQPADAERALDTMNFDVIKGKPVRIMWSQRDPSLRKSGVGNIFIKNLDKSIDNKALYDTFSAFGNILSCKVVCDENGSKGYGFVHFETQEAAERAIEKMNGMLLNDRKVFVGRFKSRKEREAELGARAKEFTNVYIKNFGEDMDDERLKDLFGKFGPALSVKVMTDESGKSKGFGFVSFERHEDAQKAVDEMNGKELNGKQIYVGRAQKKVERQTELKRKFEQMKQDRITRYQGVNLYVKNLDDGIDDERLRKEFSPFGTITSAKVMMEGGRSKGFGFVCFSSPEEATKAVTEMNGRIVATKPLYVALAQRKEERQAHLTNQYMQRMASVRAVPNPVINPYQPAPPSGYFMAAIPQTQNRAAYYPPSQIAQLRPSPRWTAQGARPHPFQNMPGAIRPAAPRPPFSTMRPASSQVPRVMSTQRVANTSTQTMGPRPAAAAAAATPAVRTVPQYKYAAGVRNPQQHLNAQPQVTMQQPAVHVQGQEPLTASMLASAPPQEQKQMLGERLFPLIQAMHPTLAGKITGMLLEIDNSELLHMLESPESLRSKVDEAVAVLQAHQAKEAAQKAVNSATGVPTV
MT1-MMP act inh – blockers of MT1-MMP proenzyme processing, primary screen, HT1080 RFP-PRO-GFP cells, GFP/RFP fluorescence; Matrix metalloproteinase-14 (Homo sapiens), P50281; GFP/RFP ratio fluorescence, overnight; percent of plate control window, DMSO zero; GFP/RFP ratio change, % at 20 µM; 0.061% of 360,000 active; AID 651647, 2012;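 active = GFP/RFP ratio change of at least 30% with cell ATP level not reduced by more than half and red fluorescence within 50% of control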; note: strong numbers were not always called active
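Material: RFP-PRO-GFP reporter HT1080 cells. Dosing: single-point 20 µM compound, 1% DMSO. Controls: DMSO and RFP-L50D-GFP cell wells. Timing: cells overnight before dosing, compound overnight, 37 °C, 5% CO2. Measure: GFP/RFP fluorescence ratio.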
Rce1 inhib – yeast Rce1p protease inhibitors, primary screen, biochemical, fluorescence, cell-free homogeneous; calls only; AID 2563, 2010; CAAX prenyl protease 2 (Saccharomyces cerevisiae (strain ATCC 204508 / S288c)), Q03530; 0.27% of 290,000 active; yeast membranes, quenched prenylated peptide cleavage fluorescence;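 active = fall in fluorescence gain of 50% or more versus controls, with final raw signal at or below 3038400; inconclusive = same 50% fall but final raw signal above 3038400; inactive = fall in fluorescence gain under 50%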;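 note: plate controls were neutral control wells for no effect and wells lacking membranes for full effect; tested at 10 µM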
eIF4H inh retest – recorded beside eIF4H inh, whose call it bears; inhibition, %; compound at 20 µM; confirmation average;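 mean of two retest wells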
PABP FP inh retest – second read-out of PABP FP inh, no call of its own (marks repeat the call); inhibition, %; compound at 20 µM; confirmation repeats;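 mean of two retest wells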
MT1-MMP act inh RFP – further read-out of MT1-MMP act inh, marked with its call; RFP signal change, %; measured here: RFP expression control read;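 0 = vehicle wells; hits needed this value within 50% of zero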
Starred values were filed as active, the others as inactive; i = inactive; ? = inconclusive; · = no result given; + = active, no number. The list is partial; count on the stated rates, not on these rows.

SMILES | UUG fidelity | CSC inhib | eIF4H inh | Env fusion inh | PABP FP inh | MT1-MMP act inh | MT1-MMP act inh RFP | Rce1 inhib | others
O=C(COC(=O)CC(c1ccccc1)c1ccccc1)Nc1ccc(F)c(F)c1 | · | -2.4 | -2.9 | · | 6.0 | · | · | i
CC(=O)Nc1ccc(Sc2ccccc2C(=O)O)cn1 | 42.8 | 3.9 | 23.3 | -4.3 | 36.7 | -3.2 | -1.1 | i
O=C(NCC1CCCO1)c1ccc([N+](=O)[O-])s1 (centres undefined) | · | -5.9 | 1.4 | -0.7 | 9.8 | 2.9 | 0.1 | i
CN(C)N1C(N)=C(C#N)C(c2cccs2)C2=C1CCCC2=O (centres undefined) | · | -19.2 | 5.7 | 1.5 | -6.1 | -4.7 | 2.5 | i
O=C(Oc1cccc(Nc2ncnc3ccccc23)c1)c1cccnc1 | -16.7 | 20.2 | -1.4 | 19.9 | 4.1 | 2.4 | 0.0 | i
COc1ccccc1CCN=C(N)NS(=O)(=O)c1cc(F)ccc1F | 1.5 | -15.9 | 99.1 | -2.7 | 1.2 | -4.9 | -1.3 | i | eIF4H inh retest=-9.9;PABP FP inh retest=16.7
COc1ccc(NC(=O)NNC(=O)CCc2ccc(O)c(O)c2)cc1OC | -12.1 | -31.3 | 56.8* | -1.7 | 17.1 | 0.9 | 4.2 | i | eIF4H inh retest=80.8*;PABP FP inh retest=14.5
COc1ccc(CN2CCN(CCc3ccccc3)C(CCO)C2)c(O)c1 (centres undefined) | · | 3.8 | 0.9 | -10.5 | -12.4 | -0.3 | -0.8 | i
N#CCSc1nnc2sc3ccccc3n12 | 1.7 | -8.0 | -1.7 | -15.5 | 3.3 | 3.0 | 5.3 | i
COc1ccc(CN=Cc2c(O)[nH]c3ccccc23)cc1 | · | 5.7 | -6.2 | -7.0 | 14.5 | 2.8 | -0.4 | i
COc1ccc2c(c1)c(C(=O)OCCN(C)C)c(C)n2C | -17.1 | -15.5 | 10.0 | -93.4 | 0.7 | 2.6 | 4.1 | i
CCn1cc(S(=O)(=O)Nc2ccc(C)c(Cl)c2)cn1 | -0.1 | -5.1 | -8.9 | -13.8 | -1.5 | -3.2 | 1.2 | i
Cc1cccc(-n2c(=O)c3c4c(sc3n3c(=S)[nH]nc23)CCC4)c1 | · | · | 3.9 | 7.6 | -5.0 | 2.6 | -0.1 | ·
CCOC(=O)c1sc(-c2cccc([N+](=O)[O-])c2)cc1N | · | -8.9 | -4.1 | -15.3 | -4.6 | -2.3 | -1.7 | i
Cc1ccccc1-n1nnnc1SCCCC(=O)c1ccc(F)cc1 | -7.8 | · | 2.0 | · | 14.5 | 7.7 | -8.5 | i
CC(C)c1ccc(NC(=O)C(c2ccc3c(c2)OCO3)N2CCC3(CC2)OCCO3)cc1 (centres undefined) | -9.9 | 9.7 | -11.4 | · | -4.6 | -1.7 | -3.1 | i
CCOc1ccc(N(CC(=O)NC2CCCCC2)C(=O)CCC(=O)Nc2nc(C)cs2)cc1 | 2.6 | -13.9 | -6.4 | -15.8 | -3.7 | -7.3 | -0.7 | i
COc1ccc(OC)c(CCNC(=O)CCCC(=O)n2ncc3cc(C)ccc32)c1 | -8.6 | 0.5 | -5.7 | 6.7 | -15.1 | 1.6 | 1.8 | i
CC(=O)N1c2ccc(S(=O)(=O)N3CCC(C(=O)Nc4cccc(C(F)(F)F)c4)CC3)cc2CC1C (centres undefined) | -4.8 | 8.8 | -7.5 | 20.6 | -10.2 | 3.4 | -22.7 | i
CCCOc1ccc(CN(CCO)CCO)cc1[N+](=O)[O-] | · | 19.8 | -10.9 | 4.7 | 5.5 | -3.3 | 3.5 | i
CCOC(=O)c1ccc(NC(=O)CSc2nnc(Cc3cccs3)n2C)cc1 | -11.3 | · | 1.2 | · | -13.9 | 1.7 | -2.4 | i
Cc1ccc(Cn2c(=O)cc(C(=O)O)c3ccccc32)cc1 | -0.8 | -1.5 | 3.7 | · | -1.1 | 2.0 | 3.3 | i
COCC(=O)N(CCc1ccc(OC)c(OC)c1)Cc1nc2ccccc2c(=O)[nH]1 | -19.0 | -5.2 | -10.2 | 9.4 | -8.5 | -6.5 | -1.1 | i
Cc1cccc(/C=C2\Sc3ccc(C(=O)N4CCC(C(N)=O)CC4)cc3N(C)C2=O)c1 | 0.1 | 26.2 | 0.4 | 3.0 | -1.2 | -2.4 | -0.6 | i
O=C(Nc1cccc(S(=O)(=O)NC2=NCCC2)c1)c1ccccc1OC(F)F | -3.4 | 5.7 | · | -11.6 | · | -3.4 | 0.0 | i
CCc1ccc(OCC(=O)NC(=S)Nc2cccc(CO)c2)c(Br)c1 | -6.4 | · | 1.4 | · | -6.0 | 0.2 | -0.2 | i
CCN(CC)C(C(=O)Nc1ccc(C(C)C)cc1)c1ccc2c(c1)OCO2 (centres undefined) | · | 12.2 | 1.4 | -58.4 | -0.2 | -2.3 | -2.1 | i
Nc1nnc2c(n1)CCCC2 | -42.9 | -1.3 | 1.8 | -27.4 | -14.3 | -0.4 | 5.0 | i
Cc1cccc(NC(=O)CSc2nc3ccc(N4C(=O)c5ccccc5C4=O)cc3s2)c1C | 0.1 | 13.5 | -5.9 | -35.7 | -8.8 | 7.3 | -1.2 | i
Cc1ccc2c(C)c(C(=O)N(Cc3ccc(F)cc3)C3CCS(=O)(=O)C3)oc2c1 (centres undefined) | -20.5 | 13.8 | 0.4 | 15.0 | -1.4 | -4.7 | -5.2 | +
O=C(NS(=O)(=O)N1CCOCC1)C1=C(N2CCCC2)COC1=O | -19.2 | · | · | -18.6 | · | 2.5 | -2.5 | ·
COCCN1Cc2cccc(C(=O)Nc3ccc4c(c3)OCCO4)c2C1=O | -9.9 | -4.6 | -1.9 | 9.9 | -5.6 | -0.2 | 0.6 | i
C=CCn1c(SCC(=O)NC2CCCC2)nnc1-c1cccnc1 | -6.4 | -11.9 | -2.9 | -0.5 | 4.5 | 5.3 | 3.1 | i
CC(C)(C)OC(=O)N1Cc2ccccc2C[C@H]1C(=O)NCC(=O)NC1CCCCC1 | 2.8 | -19.1 | -0.5 | -3.8 | -5.5 | -0.9 | -1.4 | i
COc1ccc(Cl)cc1NC(=O)CN(C)C(=O)c1ccc(OCc2ccccc2)c(OC)c1 | · | 6.8 | · | · | · | -2.3 | -9.1 | i
COc1ccc(F)cc1C(=O)C1CCCN(C(=O)c2cccc(N(C)C)c2)C1 (centres undefined) | · | 0.8 | 7.5 | 20.9 | -8.8 | 0.6 | -4.4 | i
CCOC(=O)c1cn(-c2ccc(F)c(F)c2)c2c(F)c(F)c(F)c(F)c2c1=O | · | · | 2.1 | · | 1.1 | · | · | i
COc1cccc(-n2sc3c(c2=S)-c2cc(OC)ccc2NC3(C)C)c1 | -10.5 | -14.6 | -14.5 | -81.5 | 2.2 | -5.7 | -11.1 | i
CCN(CC)S(=O)(=O)c1cccc(NC(=O)COC(=O)c2cncc(Br)c2)c1 | -3.9 | 7.2 | · | -1.2 | · | 3.9 | 2.1 | ·
CNC(=O)C(NC(=O)Nc1ccc(C)cc1)C(C)(C)C (centres undefined) | 3.7 | -6.4 | -15.7 | -1.1 | -1.6 | 1.0 | 0.0 | i
CCc1ccc(OCc2nnc(SCC(=O)N3CCOCC3)o2)cc1 | · | -4.3 | -5.3 | 19.1 | -9.6 | 1.9 | 7.8 | i
Cc1ccc(S(=O)(=O)CCC(=O)Nc2ccccc2N2CCCC2)cc1 | -13.9 | -10.3 | · | 7.3 | · | -2.1 | 2.0 | ·
CC(C)(CNC(=O)c1cc2ccccc2o1)N1CCOCC1 | -11.0 | -4.3 | 6.5 | -57.0 | 6.0 | -3.5 | -6.1 | i
Cc1c(C)n(C)c2ccc(C(=O)NCc3cccs3)cc12 | -14.3 | -3.6 | 2.5 | 12.5 | 6.0 | 9.5 | 6.4 | i
O=C1c2cccnc2C(=O)N1Cc1ccco1 | -1.1 | -5.4 | -2.9 | 14.9 | -11.2 | -0.1 | 2.1 | i
CCOc1cccc2cc(-c3cn4cc(C)ccc4n3)c(=O)oc12 | -43.4 | -6.5 | 2.5 | -188.6 | 3.0 | -4.2 | 3.2 | i
COC(=O)c1c(C)c2c(C)cc3ccccn3c-2c1C(=O)OC | -18.0 | -0.6 | ? | · | ? | -26.9 | 8.0 | i
CN(CC(=O)Nc1c(Cl)cccc1Cl)C(=O)c1sccc1-c1ccccc1 | · | -3.6 | · | 17.5 | · | -2.7 | -3.1 | i

A draw from above in order of formula weight, lowest first:
SMILES | UUG fidelity | CSC inhib | eIF4H inh | Env fusion inh | PABP FP inh | MT1-MMP act inh | MT1-MMP act inh RFP | Rce1 inhib | others
CNC(=O)C(NC(=O)Nc1ccc(C)cc1)C(C)(C)C (centres undefined) | 3.7 | -6.4 | -15.7 | -1.1 | -1.6 | 1.0 | 0.0 | i
Cc1c(C)n(C)c2ccc(C(=O)NCc3cccs3)cc12 | -14.3 | -3.6 | 2.5 | 12.5 | 6.0 | 9.5 | 6.4 | i
CCc1ccc(OCc2nnc(SCC(=O)N3CCOCC3)o2)cc1 | · | -4.3 | -5.3 | 19.1 | -9.6 | 1.9 | 7.8 | i

Next part:
SMILES | UUG fidelity | CSC inhib | eIF4H inh | Env fusion inh | PABP FP inh | MT1-MMP act inh | MT1-MMP act inh RFP | Rce1 inhib | others
COc1ccc(C(CNC(=O)c2ccc(OCc3cscn3)cc2)N2CCCC2)cc1 (centres undefined) | -9.8 | · | · | 9.1 | · | 10.9 | -0.6 | ·
CCOC(=O)N1CCN(C(=O)c2ccc(NS(=O)(=O)c3ccc(C)cc3)cc2)CC1 | 14.1 | 13.9 | -3.3 | 8.5 | 1.0 | -0.2 | -14.2 | i
Cc1ccc2c(cnn2C(=O)CCC(=O)NCc2cccc(Cl)c2)c1 | -12.8 | -12.4 | -7.9 | -0.8 | -8.8 | 0.5 | 0.6 | i
O=C(COC(=O)Cc1cccs1)Nc1cc(S(=O)(=O)N2CCOCC2)ccc1Cl | 4.4 | -2.5 | · | 14.5 | · | 0.6 | 1.6 | ·
C=CCc1ccc(OCCCNC2CCCC2)c(OC)c1 | -8.0 | 11.0 | · | 10.1 | · | 0.6 | 3.5 | i
Cc1ccc(S(=O)(=O)NC(CC(C)C)C(=O)N2CCC(C)CC2)cc1 (centres undefined) | -9.1 | -8.3 | 5.7 | 23.7 | 1.2 | -1.9 | -2.2 | i
CC(=O)C1=C(O)C(=O)N(c2ccc(O)cc2)C1c1ccc(F)cc1 (centres undefined) | -19.3 | 4.5 | -7.3 | -3.5 | 9.5 | 3.2 | 2.1 | i
Nc1cc(-c2ccc(Br)cc2)nn1S(=O)(=O)c1cccc2nsnc12 | -7.7 | 22.1 | 2.3 | 24.3 | 3.7 | -1.7 | -15.8 | i
COc1cccc(CNC23CC4CC(CC(C4)C2)C3)c1OCc1ccccc1 | 3.1 | 55.1 | 2.6 | 62.1* | 5.8 | 0.3 | -5.1 | i
